T cruzi inh = T. cruzi replication inhibition | T. cruzi beta-gal in NIH3T3, luminescence, 90 h | inhibition, % (concentration not given with the values) | actives 1.4% (n = 300,000) | AID 1885;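 active means mean inhibition across valid replicates above about 55%, limit read from the data; inconclusive means mean below that limit but half or more replicates reach it; inactive means mean below it, under half of replicates reach it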;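 further: signal also drops with host cell toxicity which is not excluded here; 0% = plate median of DMSO wells and 100% = zero luminescence signal; higher percent means less beta-gal luminescence so fewer parasites; stock transfer was 50 nL into about 50 µL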
FGF22 binding = binders of recombinant human FGF22 by thermal shift | Q9HCT0 | SYPRO orange fluorescence; percent of sucrose octasulfate shift, DMSO zero | calls only at 9.99 µM | actives 1.5% (n = 340,000);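 active means melting point raised past a set limit in the mean and every replicate; inconclusive means no clear call; three in four hits are not shown here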
Target sequence (Q9HCT0 whole entry, looked up): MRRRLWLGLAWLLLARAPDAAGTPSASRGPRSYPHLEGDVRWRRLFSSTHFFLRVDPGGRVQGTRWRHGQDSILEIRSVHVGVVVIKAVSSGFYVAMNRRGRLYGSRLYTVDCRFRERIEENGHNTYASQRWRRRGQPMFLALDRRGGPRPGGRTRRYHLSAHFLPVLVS
Beta cell apopt = beta cell apoptosis inhibition | INS-1E cytokine-induced death, ATP luminescence, 48 h; percent of positive-control rescue, neutral wells zero | protection from apoptosis, % (test concentration not listed) | actives 0.8% (n = 300,000) | AID 435005;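 active means all replicates at 75% or more, or half of them and the mean; inconclusive means half reach 75% but not the mean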;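 further: 0% = cytokine-treated negative control wells and 100% = positive control rescue; higher means more ATP so stronger rescue from cytokine killing; wells of about 40 µL received 100 nL stock; the first replicate is given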
MLL AF4-AF9 inh = MLL-AF4/AF9 protein interaction inhibition; P42568; AlphaScreen, biotin-AF4 peptide binding to FLAG-AF9; inhibition, % at 10 µM; actives 0.47% (n = 350,000); AID 651704;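 active means every replicate reaching a set inhibition limit, whatever the replicate mean, cut at about 25% in these data; inconclusive means mean inhibition reaches that limit but some replicates miss it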;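 further: 0% = plate neutral control median and 100% = total signal loss; the record names both 10 and 1 µM as test concentration; the first replicate is given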
Target sequence (P42568 whole entry, looked up): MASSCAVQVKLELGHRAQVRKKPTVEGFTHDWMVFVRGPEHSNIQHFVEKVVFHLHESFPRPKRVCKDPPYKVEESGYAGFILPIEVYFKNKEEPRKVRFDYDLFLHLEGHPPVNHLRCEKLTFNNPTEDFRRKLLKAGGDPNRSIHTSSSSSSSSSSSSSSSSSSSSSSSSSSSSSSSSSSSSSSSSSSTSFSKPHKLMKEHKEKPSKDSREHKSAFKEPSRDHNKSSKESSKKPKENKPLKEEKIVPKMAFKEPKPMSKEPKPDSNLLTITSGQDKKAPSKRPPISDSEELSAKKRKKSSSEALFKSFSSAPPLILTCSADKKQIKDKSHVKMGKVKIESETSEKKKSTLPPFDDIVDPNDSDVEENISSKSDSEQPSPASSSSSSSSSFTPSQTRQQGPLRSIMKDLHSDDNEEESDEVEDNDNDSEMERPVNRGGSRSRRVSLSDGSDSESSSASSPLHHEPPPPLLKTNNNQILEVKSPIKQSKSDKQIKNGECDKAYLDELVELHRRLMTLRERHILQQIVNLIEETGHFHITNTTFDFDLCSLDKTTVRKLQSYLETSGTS
UCH37 DUB inh = human UCH37 deubiquitinating enzyme inhibition | Q9Y5K5 | purified proteasome/UCH37, Ub-AMC cleavage fluorescence | inhibition, % (no concentration beside the values) | AID 588478 | actives 0.33% (n = 330,000);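 active means mean of two replicates above 20%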;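 further: 0% = compound-free wells with enzyme and 100% = wells lacking proteasome; stock transfer was 100 nL into about 20 µL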
Target sequence (Q9Y5K5 whole entry, looked up): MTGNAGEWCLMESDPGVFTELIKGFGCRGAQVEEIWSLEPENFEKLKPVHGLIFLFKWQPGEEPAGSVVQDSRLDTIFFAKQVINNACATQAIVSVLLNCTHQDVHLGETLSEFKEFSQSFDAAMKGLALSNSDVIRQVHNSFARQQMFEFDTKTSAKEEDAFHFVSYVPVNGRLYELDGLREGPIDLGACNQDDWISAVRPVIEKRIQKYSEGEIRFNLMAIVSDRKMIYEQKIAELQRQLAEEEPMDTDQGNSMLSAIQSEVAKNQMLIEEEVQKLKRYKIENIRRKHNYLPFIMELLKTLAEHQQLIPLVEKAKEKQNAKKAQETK
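Material: Human UCH37 enzyme supplied as purified proteasome complex | Schedule: 30 min compound-proteasome preincubation then 25 min substrate reaction, room temperature | Detection: AMC fluorescence from Ub-AMC cleavage, excitation 355 nm, emission 460 nm | Benchmarks: Wells without proteasome as full block, compound-free enzyme plus substrate as uninhibited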
Ecoli growth = blocks Escherichia coli growth | actives 0.21% (n = 330,000) | OD600, 23 h; active compounds read low | AID 1053175 | OD600 absorbance (concentration not given with the values);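 active means OD600 absorbance below the run mean of sample wells minus 3.6 SD, in any replicate, cut at about 0.56 in these data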;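 further: stock transfer was 300 nL into about 60 µL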
A1 inh = inhibitors of the anti-apoptotic protein A1, read as caspase activation | MEF A1-2A-BIM cells, Caspase-Glo 3/7 luminescence, 3 h; percent of clofoctol response, vehicle zero | caspase activation, % (concentration not given with the values) | actives 0.066% (n = 330,000) | AID 2462;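 active means over half of replicate activation scores above 10%, or exactly half above 10 with the replicate mean above 10; inconclusive means replicate mean below 10 yet half the replicates above 10; inactive means over half of replicates below 10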;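 further: wells of about 30 µL received 50 nL stock; many hits fall short of the cut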
Ecoli rRNA inh = selective bacterial rRNA inhibition in E. coli; actives 1.6% (n = 350,000); E. coli WT GFP vs humanized-ribosome RFP mutants, fluorescence, 24 h; active compounds read low; DMSO median 0, no signal -100; GFP signal change (wild-type ribosome), % (no concentration beside the values);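 active means significant combined selectivity score with lowered wild-type GFP, culture density cut under 30%, mutant RFP and density less affected; inactive means any of these conditions unmet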; further: one replicate is shown; some compounds called inactive have numbers as strong as hits
Ecoli rRNA inh OD600 = also measured in Ecoli rRNA inh; calls as there; OD600 change, %; measured here: OD600 growth;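 optical density of the mix in the first replicate; 0 = DMSO median and -100 = no signal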
Ecoli rRNA inh RFP = also measured in Ecoli rRNA inh; calls as there; RFP signal change, %; measured here: RFP humanized mutant strains;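 first replicate; 0 = DMSO median and -100 = no signal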
Active calls of the source: *; i = inactive; ? = inconclusive; · = not tested or not shown; & = joins results of further samples. Not all compounds are listed, so the mix of outcomes need not match the whole.

SMILES	T cruzi inh	FGF22 binding	Beta cell apopt	MLL AF4-AF9 inh	UCH37 DUB inh	Ecoli growth	A1 inh	Ecoli rRNA inh	Ecoli rRNA inh OD600	Ecoli rRNA inh RFP
Cc1ccc(NC(=O)CCn2cnc3cc(C)c(C)cc32)cc1	-13	·	-3	-25	4.8	0.67	1.7	-16	-16	-6.4
O=C(c1ccc2c(c1)N(Cc1ccccc1)CCS2)N1CCOCC1	18	i	2	-17	-68	0.7	-0.4	-10	-17	2.6
Cc1cccnc1NC(=O)CSc1ncnc2sc(C)c(C)c12	1	i	-11	-2.8	·	·	0.6	-4	-14	-1.7
COc1cc(NC(C)C(=O)N2CC(C)OC(C)C2)cc(OC)c1 (stereo not given)	30	·	-5	·	-0.1	0.74	0.4	·	·	·
Cc1cc(OC(=O)C(c2ccccc2)c2ccccc2)c([N+](=O)[O-])c(=O)[nH]1	·	·	-1	·	5.2	0.65	-1.0	·	·	·
CC12CCC(C(=O)N(NC(=O)c3cc(Cl)ccc3O)C1=O)C2(C)C (stereo not given)	-16	·	-4	·	-70	0.65	0.3	·	·	·
CCC(=O)/C=C1\Sc2ccccc2N1CC	1	i	0	6.9	24*	0.67	-0.3	0	6	1.0
CCOC(=O)C1=C(C)NC(=O)NC1c1ccc(OCC(=O)Nc2ccccc2)c(OC)c1 (stereo not given)	1	i	2	-6.4	6.0	0.74	-0.4	16	6	3.0
O=C(Oc1ccc(F)c(F)c1)c1ccc2c(=O)n3c(nc2c1)CCC3	-5	i	3	-3.9	-0.6	0.74	-0.6	5	12	-2.4
Cc1cccc(NC(=O)COC(=O)CCc2ccccc2)c1C	-15	i	·	-5.2	2.1	0.63	0.7	3	-1	0.5
O=C(Nc1ccc(F)c([N+](=O)[O-])c1)C1CCCO1 (stereo not given)	4	i	-1	4.2	0.9	0.72	0.4	11	1	0.4
Cc1ccc(N(CC(=O)NC2CCCCC2)S(=O)(=O)c2c(C)noc2C)cc1	4	i	-5	-1.6	4.6	0.69	0.5	9	17	-1.7
COc1ccc(S(=O)(=O)N2CCCCCC2)cc1C(=O)Nc1ccccn1	3	i	-7	-1.5	-2.8	0.71	0.5	4	13	-1.8
CC(C)(C)OC(=O)NCCCCCNC(=O)c1[nH]cnc1C(=O)Nc1nccs1	·	i	-8	1.1	-8.7	0.72	-0.3	15	10	10
COc1ccccc1C(=O)NC(C)c1ccccc1 (stereo not given)	-5	·	-1	·	5.0	0.72	-0.1	·	·	·
CCOC(CCn1c(SCc2ccc([N+](=O)[O-])cc2)nc2ccccc2c1=O)OCC	38	i	18	-8.3	0.8	0.71	-0.5	-9	-3	4.3
CCN(CC(=O)Nc1ccc(NC(C)=O)cc1)C(=O)CC1OC(=O)c2ccccc21 (stereo not given)	-14	i	0	-8.0	0.8	0.67	0.4	2	15	-0.9
O=C(O)c1c[nH]ccc1=O	-25	·	-3	·	-1.9	0.72	-0.4	·	·	·
Cc1cc(NC(=O)CSc2nnc3c(C)cc4cc(C)c(C)cc4n23)no1	6	·	0	·	-1.4	0.76	-0.4	·	·	·
COc1cccc(N2CCN(CC(=O)Nc3ccc(SC(F)F)cc3)CC2)c1	1	i	-3	0.7	0.6	0.68	-0.3	·	·	·
Clc1cccc(N/N=C/c2ccc(N3CCOCC3)s2)c1	-6	i	·	-5.2	·	·	-0.4	8	5	-4.3
COC(=O)c1cc(C(=O)NCc2ccccc2)c(=O)[nH]c1C	0	i	-6	-11	2.3	0.67	-0.6	10	5	-1.2
Cc1cccc(C)c1NC(=O)CNC(=O)CCC(=O)c1cccs1	-21	i	1	0.2	-2.1	0.7	0.6	8	9	0.2
COCCn1c(=S)[nH]c2cc(OC)c(OC)cc2c1=O	-2	i	1	-50	6.5	0.66	-0.2	6	-1	0.0
CC(NC(=O)c1ccc2c(c1)OCCO2)C(=O)O (stereo not given)	1	·	4	·	2.4	0.68	0.0	·	·	·
CCOC(=O)CC(=O)CSc1nccc(-c2cccnc2)n1	-3	i	-3	·	2.3	0.66	0.8	2	-16	5.6
CS(=O)(=O)N(CC(=O)Nc1cccc([N+](=O)[O-])c1)c1cccc(F)c1	-9	i	-4	4.6	5.1	0.66	0.1	-12	-5	0.6
CCOC(=O)CSc1nc2c(sc3ccccc32)c(=O)n1CCCN1CCOCC1	17	·	-6	·	0.2	0.69	0.4	·	·	·
Cc1nc(N2CCN(C(=O)COc3ccccc3)CC2)c2c(C)c(C)sc2n1	0	·	3	·	5.0	0.69	-1.1	·	·	·
O=C1c2ccccc2CCC12N=NCC2c1ccc(Cl)cc1 (stereo not given)	-10	·	-3	·	0.0	0.65	1.2	·	·	·
COc1ccccc1N1CCN(C(=O)c2cc3c(s2)-c2ccccc2OC3)CC1	1	i	2	-0.2	-16	0.76	-0.1	5	-15	3.2
CC(C)N(Cc1nnc(-c2ccccc2Br)o1)C(=O)c1cc(Cl)nc2ccccc12	·	i	0	-0.7	2.8	0.69	0.1	-8	-26	8.9
CCOC(=O)c1cc(-c2ccccc2)sc1NC(=O)c1ccc(OC)c(OC)c1	-6	·	-1	·	-282	0.69	0.2	·	·	·
Cc1cc(OC(=O)c2cccs2)ccc1C(C)C	18	·	3	·	4.7	0.74	0.1	·	·	·
O=C(NCC(c1cccs1)N1CCOCC1)c1cccc([N+](=O)[O-])c1 (stereo not given)	-23	·	0	·	5.1	0.63	1.1	·	·	·
CCOc1ccc(S(=O)(=O)NCC2CCCO2)c2cccnc12 (stereo not given)	-1	·	2	·	-25	0.75	1.1	·	·	·
NCc1oc(-c2ccccc2)cc1C(=O)O	5	i	4	-0.1	-1.1	0.71	-0.9	20	23	4.8
N#CCC(=O)N/N=C/c1cc(-c2ccccc2)n(-c2ccc(Cl)cc2)c1-c1ccccc1	60*	·	109*	-1.2	·	·	0.5	20	20	1.5
CCCCOC(=O)c1[nH]c(C)c(C(=O)OC)c1C	6	·	3	·	3.0	0.67	-0.1	·	·	·
CCOC(=O)N1CCN(C(=O)CS(=O)Cc2nc(-c3ccc(OC)c(OC)c3)oc2C)CC1 (stereo not given)	-11	i	1	-4.4	1.3	0.67	1.0	12	6	4.5
C[C@H](CO)N1C[C@H](C)[C@@H](CN(C)S(=O)(=O)c2ccc(Cl)cc2)Oc2ccc(NS(=O)(=O)c3ccccc3)cc2CC1=O	·	i	-6	-0.1	3.9	0.78	0.4	-1&0	-5&12	1.6&8.6
O=C(Nc1nc(-c2ccc(Cl)cc2)cs1)NC1CCCCC1	34	·	-2	·	-3.0	0.69	1.2	·	·	·
S=C(NCCc1ccccc1)NCc1cccs1	-6	i	4	-0.4	5.7	0.68	-0.3	-10	-10	-7.5
Cn1c(CCN2CCCCC2)nc2cc(NS(=O)(=O)c3ccc(F)cc3)ccc21	-14	·	4	·	6.1	0.68	0.0	·	·	·
CC(C)=CC(=O)Nc1ccccc1Br	-23	i	1	3.6	0.4	0.62	1.4	12	10	-8.9

Brought forward from above: 2 entries, then new ones.
SMILES	T cruzi inh	FGF22 binding	Beta cell apopt	MLL AF4-AF9 inh	UCH37 DUB inh	Ecoli growth	A1 inh	Ecoli rRNA inh	Ecoli rRNA inh OD600	Ecoli rRNA inh RFP
Cn1c(CCN2CCCCC2)nc2cc(NS(=O)(=O)c3ccc(F)cc3)ccc21	-14	·	4	·	6.1	0.68	0.0	·	·	·
CC(C)=CC(=O)Nc1ccccc1Br	-23	i	1	3.6	0.4	0.62	1.4	12	10	-8.9
COc1ccccc1NS(=O)(=O)c1cc(NC(=O)COc2ccccc2F)ccc1N1CCOCC1	·	i	40	-3.1	6.9	0.73	0.2	2	5	1.3
COc1ccc2c(c1)c1c(n2C(C)=O)C(OC(C)=O)=NCC1	-16	·	6	·	-77	0.69	0.2	·	·	·
Cc1nnc(SCC(=O)Nc2ncc3c(n2)CCCC3=O)s1	-4	·	-4	·	1.3	0.69	-0.3	·	·	·
O=C1CC(C(=O)O)C(c2ccccc2)c2ccccc21 (stereo not given)	·	i	·	-16	1.1	0.66	·	11	9	-2.5
CC(=O)c1cccc(NC(=O)c2csc3c2CCCCC3)c1	-16	i	-5	0.6	4.9	0.7	-0.2	0	1	-1.9
COc1ccccc1/C=C/C(=O)NCC(=O)n1nc(C)cc1C	-26	i	-2	·	-66	0.66	0.8	5	4	-2.4
COc1ccc(CNC(=O)COC(=O)c2c(-c3c(F)cccc3Cl)noc2C)cc1OC	-6	·	1	·	3.5	0.7	0.7	·	·	·
O=C1CCc2cc(S(=O)(=O)NC(Cc3ccccc3)C(=O)NCCC3=CCCCC3)ccc2N1 (stereo not given)	6	i	-1	2.0	6.7	0.73	0.3	1	-3	-2.8
Cc1ccc(Cl)cc1NC(=O)N[C@@H](C)C(=O)O	-9	·	-3	·	2.5	·	-0.1	·	·	·
COc1cccc(OC)c1NC(=O)CN1CCC(NC(=O)c2cccc(F)c2)CC1	-5	·	0	·	1.5	0.71	-0.8	·	·	·
Cc1cc(N2CCN(c3ccccc3)CC2)n2cc(-c3ccccc3)nc2n1	36	·	6	·	-30	0.67	-0.7	·	·	·
COc1ccc(OCC(=O)NNC(=O)c2cccc(O)c2)cc1	-22	i	-13	-1.6	2.4	0.62	-1.1	3	0	-0.8
Cc1cc(=O)[nH]c(-n2[nH]c3c(c2=O)CCCC3)n1	-22	·	1	·	3.1	0.68	-0.7	·	·	·
CC(=O)Nc1cc(S(=O)(=O)Nc2ccc(C)cc2)c(C)cc1C	-8	·	7	·	4.0	0.69	0.1	·	·	·
COc1ccc(C(=O)O)cc1S(=O)(=O)N1CCSCC1	-2	i	·	-1.1	4.5	0.7	0.5	12	6	4.9
COc1ccc(Nc2n[nH]c(C)c2[N+](=O)[O-])cc1	-24	i	-2	-1.0	7.1	0.67	-0.5	2	2	-0.3
Cc1ccc(S(=O)(=O)Nc2ccc3c(c2)c2c(n3S(=O)(=O)c3ccc(C)cc3)CCCC2=O)cc1	22	·	-1	·	3.6	0.71	1.4	·	·	·
Cc1ccc([N+](=O)[O-])cc1S(=O)(=O)N1CCN(C)CC1	10	i	-2	-0.3	2.4	0.7	2.6	18	23	0.2
CNC(=S)N(CCc1c(C)[nH]c2ccc(F)cc12)Cc1ccco1	-2	i	1	3.5	0.7	0.6	0.0	-18	-29	-3.5
CCCOC(=O)c1c(-c2ccccc2)nc(CC)c(C(=O)SCC)c1CCC	·	i	9	-20	-1.2	0.66	?	·	·	·
N#Cc1ccc2[nH]cc(CCO)c2c1	-4	i	3	-1.5	4.8	0.69	0.7	15	21	5.8
Cc1ccc(N(Cc2ccc(C(=O)NN=C3CCN(C)CC3)cc2)S(C)(=O)=O)cc1C	11	·	-1	·	3.2	0.71	-0.7	·	·	·
O=C(c1cc(-c2cccc(Cl)c2)on1)N1CCCCCC1	10	i	-3	-1.5	-0.7	0.65	-0.7	-16	-26	1.4

Screens from PubChem.
